Assay outcomes deposited in PubChem by National Center for Advancing Translational Sciences (NCATS).
Menin MLL FP FL – qHTS Assay for Inhibitors Targeting the Menin-MLL Interaction in MLL Related Leukemias: Competition With Fluorescein Labeled MLL-derived Peptide. Fluorescence polarization, fluorescein-MLL peptide displacement from menin. FP activity change, % at 61.4 µM. 290,000 tested, under 10 active. AID 1766, 2009; inconclusive = falling polarisation curve, or a change in total fluorescence; inactive = total fluorescence flat and polarisation flat or rising; no compound was filed as active; the % refers to the polarisation; negative = inhibition;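 further: % of control where 0% means no effect; inhibitors lower the polarisation; unlabelled MLL peptide was the positive control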
gsp antag – qHTS for Antagonists of gsp, the Etiologic Mutation Responsible for Fibrous Dysplasia/McCune-Albright Syndrome: qHTS; Potency, µM (highest dose often 76.9 µM), inactives show at the highest dose activity change, negative = inhibition, most hits filed as inhibitors; gsp-mutant cells, cAMP HTRF, 30 min; control for the full effect not named in the record; hit rate 0.4% among 340,000; active = falling curve of any shape with a large fitted effect; inconclusive = falling curve, mostly with a smaller effect; inactive = flat or rising curve; cell line not stated here;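 further: intracellular cAMP measured with PDE inhibitor Ro 20-1724 present during compound exposure; potency means the concentration at half of the fitted maximal effect; on the % scale 0 is the no-effect control and ±100 the full control effect; nearly all actives have a fitted effect of over 65% in size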
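HTRF cAMP measurement after 30 min RT detection following 30 min, 37C compound treatment alongside […] (added as 300 uM solution) in G418-selected cells seeded at 2000/well and grown 16–24 h.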
TRPML1 blocker – qHTS for Inhibitors of the Human Mucolipin Transient Receptor Potential 1 (TRPML1). Mucolipin-1 (Homo sapiens), Q9GZU1. TRPML1-inducible cells, Ca2+ dye fluorescence, FDSS; hits give low values; inhibition of EC80 agonist-evoked calcium signal. activity change, negative = inhibition, % (test concentration not listed). hit rate 0.02% among 390,000. AID 624415, 2012; in the data active means activity change below about -50%; inconclusive means about -30% to -50%; inactive means above about -30%;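 further: stimulus is agonist 54-4 at its EC80 concentration; on the % scale 0 is the no-effect control and ±100 the full control effect; compound concentration not given in the record; the text of the record puts the active cut at -80%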
Target sequence (Q9GZU1 whole entry, looked up): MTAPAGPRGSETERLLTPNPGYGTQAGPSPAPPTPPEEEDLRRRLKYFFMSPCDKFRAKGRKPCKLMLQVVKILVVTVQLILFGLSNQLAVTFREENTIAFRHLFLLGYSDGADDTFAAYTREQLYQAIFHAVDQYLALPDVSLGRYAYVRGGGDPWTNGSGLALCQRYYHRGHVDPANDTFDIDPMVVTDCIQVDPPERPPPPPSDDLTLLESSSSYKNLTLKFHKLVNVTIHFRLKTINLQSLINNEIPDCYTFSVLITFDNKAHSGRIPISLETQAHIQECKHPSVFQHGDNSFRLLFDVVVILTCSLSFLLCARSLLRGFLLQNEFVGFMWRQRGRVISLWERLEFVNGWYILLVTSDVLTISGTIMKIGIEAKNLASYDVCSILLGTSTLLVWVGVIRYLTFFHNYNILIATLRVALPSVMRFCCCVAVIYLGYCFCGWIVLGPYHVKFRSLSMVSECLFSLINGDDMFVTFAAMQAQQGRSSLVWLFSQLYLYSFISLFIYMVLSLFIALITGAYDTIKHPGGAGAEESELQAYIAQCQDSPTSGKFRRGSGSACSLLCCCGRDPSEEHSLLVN
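TRPML1-DL cells, Tet-induced overnight (~16 h, 37 °C) at 1,500 cells/well, were loaded with Ca8 no-wash dye plus quencher for 45-90 min at room temperature. Compounds were pinned during FDSS kinetic reading; agonist 54-4 at EC80 (4 uM final) then added.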
TRPML1 agonist – qHTS for Agonists of the Human Mucolipin Transient Receptor Potential 1 (TRPML1). hit rate 0.12% among 410,000. TRPML1-expressing cells, Ca2+ dye fluorescence, FDSS; host cell line not named in the record; reference of the full effect not given here. activation, % (test concentration not listed); in the data active = activation above about 50%; inconclusive = about 30% to 50%; inactive = below about 30%; further: 0% is about no effect; the text of the record puts the active cut at 80%
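Agonist activity was taken from a 110 s kinetic Ca2+ dye read on the FDSS after pinning compounds onto TRPML1-DL cells. The cells were seeded at 1,500/well with Tet inducer, incubated about 16 h, then dye-loaded at room temperature.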
ClpP mod – qHTS Assay for Activators of ClpP. ATP-dependent Clp protease proteolytic subunit (Bacillus subtilis (strain 168)), P80244. Potency, µM (doses to about 57.5 µM), for inactives: at the top dose activity change, negative = active. purified B. subtilis ClpP, FRET peptide cleavage, 20 min. hit rate 1.9% among 340,000; active = well fitted falling curve with a large enough effect; inconclusive = small, poorly fitted or top-dose-only effect; inactive = no such curve, though single readings can be large or run the other way; further: potency means the concentration at half of the fitted maximal effect; the source files actives as falling curves though it sought activators and does not explain the sign; nearly all actives have a fitted effect of over 65% in size; many hits overshoot -100%
Target sequence (P80244 whole entry, looked up): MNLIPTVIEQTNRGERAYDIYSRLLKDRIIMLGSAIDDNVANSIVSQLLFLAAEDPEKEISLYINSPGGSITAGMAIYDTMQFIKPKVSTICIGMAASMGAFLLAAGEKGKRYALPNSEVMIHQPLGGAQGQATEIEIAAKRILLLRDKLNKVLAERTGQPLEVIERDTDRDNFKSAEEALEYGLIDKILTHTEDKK
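Buffer: 100 mM Tris/HCl pH8, 100 mM KCl, 0.05% low protease BSA, 2.5% glycerol, 0.01% Tween-20. ClpP 10 microg/mL final; 20 min RT; delta FRET normalized to ADEP and DMSO controls.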
gsp agonist – qHTS for Agonist of gsp, the Etiologic Mutation Responsible for Fibrous Dysplasia/McCune-Albright Syndrome: qHTS; gsp mutant cells, cAMP HTRF, 30 min; control for the full effect not named in the record; Potency, µM (highest dose often 76.9 µM), for the others: at the top dose activation (cAMP increase), actives largely listed as activators; hit rate 0.13% among 340,000; AID 624287, 2012; active = well fitted activation curve with a large enough effect; inconclusive = small, poorly fitted or top-dose-only effect, or another doubt; inactive = no such curve, though single readings can be large or run the other way; cell line not stated here;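 further: phosphodiesterase inhibitor Ro 20-1724 added with compounds to block cAMP breakdown; potency means the concentration at half of the fitted maximal effect; nearly all actives have a fitted effect of over 60% in size; about a fifth of the inactives were tested at one dose only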
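Cells in DMEM/10% FBS with G418 were pretreated with compounds in DMSO plus […] (300 uM stock) for 30 min at 37C. cAMP was measured by HTRF (cAMP-d2 plus anti-cAMP antibody-K) after 30 min at room temperature.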
* marks the source's active call; other numbers are inactive results; u = inconclusive; x = not tested or not shown; & = joins results of further samples; [ ] = remark or other dose. Not a hit list; about 2.1% have a hit in one of these screens.

Structure,Menin MLL FP FL,gsp antag,TRPML1 blocker,TRPML1 agonist,ClpP mod,gsp agonist
Cc1ccc(Cl)cc1-c1cc(C(=O)NCC2CCCCC2)[nH]n1,x,x,2,1.0,7.2%,x
CC(C)CCN1CCN(Cc2ccc(C#CCCO)cc2)CC1CCO (centres undefined),0.3,3%,-18,0.9,x,7%[15.4 µM]
COc1cccc(NC(=O)CN(C)C(=O)/C=C/c2cn(-c3ccccc3)nc2-c2ccc(C)cc2)c1,x,-23%,12,0.4,u,6%
CCN(C(=O)Cn1cnc2c1c(=O)n(C)c(=O)n2C)C1CCS(=O)(=O)C1 (centres undefined),x,12%,2,-0.6,1.7%,33%
Cc1ccccc1-n1c(SCC(=O)N2CCN(c3ccccc3)CC2)nnc1-c1ccncc1,-4.4,-13%,-7,-0.9,1.8%,42%
COc1ccccc1CNC(=O)c1cc(-c2cccnc2)nc2ccccc12,0.2,-13%,-8,2.5,x,-4%[15.4 µM]
N=c1c(S(=O)(=O)c2ccccc2)cc2c(=O)n3ccccc3nc2n1Cc1ccco1,u,5%,0,-0.1,u,u
CCCCC(CCC(=O)Nc1ccccc1C(=O)OCC)C(=O)O (centres undefined),2.9,-6%,15,-0.3,u,14%
CCN1CCN(C(=O)c2ccc3c(c2)N(Cc2cc(C)ccc2C)C(=O)c2ccccc2S3=O)CC1 (centres undefined),x,x,-12,0.1,-5.4%,x
O=C(O)c1ccc(NS(=O)(=O)c2cccc(C(=O)Nc3cccc(C(=O)O)c3)c2)cc1,-10,6%,10,0.6,-1.9%,9%
CC(C(=O)N1CCN(C)CC1)N1C(=O)c2ccccc2C1=O (centres undefined),11,12%,9,0.9,-0.8%,6%
COc1ccc(N2CCN(C(=O)c3ccc4c(c3)CCN4S(C)(=O)=O)CC2)cc1,x,x,-1&-1,-0.5&-0.6,1.8%&0.0%,-49%[inhibitor]
CCOC(=O)c1c(NC(=O)C2C3C=CC(C3)C2C(=O)O)sc2c1CC(C)CC2 (centres undefined),-6.7,-34%,0,1.4,x,-12%
Cc1nc2ccccc2nc1CN1CCC(CO)(CC2CCCCO2)CC1 (centres undefined),-4.1,4%,-4,-0.1,x,28%
CSCCC(NC(=O)c1cccc([N+](=O)[O-])c1)C(=O)O (centres undefined),2.8,13%,2,-0.4,25µM*,-33%[inhibitor]
CCOC(=O)c1sc2nc(N3CCOCC3)c3c(c2c1N)CCC3,4.2,-12%,19,1.1,97%,-13%
O=C(CCCn1c(=S)[nH]c2ccsc2c1=O)Nc1ccc2c(c1)OCCO2,-0.7,-28%,17,0.0,x,-3%[15.4 µM]
COC(=O)c1c(NC(=O)CN2CCC3(O)CCCCC3C2c2cc(OC)ccc2OC)sc(C)c1C (centres undefined),4.2,-22%,49,2.2,28µM*,-3%
COc1ccccc1[C@@H]1C(c2cccc(Cl)c2)=NN(c2ccccc2)[C@H]1C(=O)N1CCOC1=O,1.4&-1.4,-7%,25,0.6,4.7%,u
O=C(Cc1ccccc1)Nc1ccc(NC(=O)c2cccc(Cl)c2)cc1,2.6,8%,8,-0.3,-7.6%,-15%
CCN(CC)C(=O)CSc1nc2c(sc(=S)n2CC)c(=O)n1-c1ccccc1,0.7,u,-2,2.3,0.5%,5%
O=C(Nc1ccc(CN2CCOCC2)cc1)c1cc(Br)ccc1Cl,1.4,10%,21,-0.5,2.3%,1%
O=C(NCc1ccccc1)C(=O)NCC1OCCN1S(=O)(=O)c1cccs1 (centres undefined),-1.1,12%,-13,-0.6,-1.4%,-8%
O=C(NCCCNC(=O)c1c(Cl)cccc1Cl)c1c(Cl)cccc1Cl,x,7%,-3,-0.4,x,14%
COc1ccc(OC)c(C2C(C(C)=O)=C(O)C(=O)N2c2ccc(F)cc2)c1 (centres undefined),-0.4,-5%,1,0.7,-3.0%,27%
Cc1cccc(N=Nc2c(O)[nH]c3ccc(F)cc23)c1,u,2%,-1,0.7,x,-8%[15.4 µM]
COc1ccc(NC(=O)c2ccc([N+](=O)[O-])s2)c([N+](=O)[O-])c1,-0.6,6%,11,-0.1,-2.6%,-2%
COc1cccc(C(=O)NCCS(=O)(=O)N2CCN(c3ccccc3)CC2)c1OC,x,x,5,-0.2,-7.7%,u
O=C1CN(C(=O)NCCC(=O)NC2CCCCC2)c2ccccc2N1,x,7%,-13,1.1,0.1%,3%
COc1ccc(C(=O)Nc2ccc(Cl)c(S(=O)(=O)N3CCOCC3)c2)cc1,x,u,11,1.6,x,29%
Cn1c(=O)c2nc(NCc3ccccc3)cnc2n(C)c1=O,-17,5%,12,0.1,-4.2%,2%
O=C1C=C(O)c2cccc(O)c2C1=O,1.9,-15%,x,x,2.9%,x
Cc1sc(NC(=O)C2CCCCC2)c(C#N)c1-c1ccccc1,6.8,-21%,-14,83*,-1.0%,-3%
Cc1cc(C)n(C(=O)CNC(=O)/C=C/c2ccccc2)n1,-0.9,9%,-5,-0.6,x,-19%
Nc1nc(Cl)nc2c1ncn2C1OCC(O)C(O)C1O (centres undefined),x,7%,-9,0.0,-0.3%,5%
Cc1cc([N+](=O)[O-])nn1Cc1ccc(C(=O)N/N=C/c2ccccc2)cc1,3.4,u,-23,1.6,-2.3%,6%
CCOc1nc(-c2ccc(C)cc2)ccc1-c1noc(COC)n1,-0.3,-15%,3,2.3,32µM*,-4%
CCOC(=O)Cc1cc(-c2ccccc2)nc2ccc3ccccc3c12,4.7,-17%,26,2.8,-0.3%,-7%[15.4 µM]
COc1cccc(CNC(=O)C2CCCN(S(=O)(=O)c3c(C)n[nH]c3C)C2)c1 (centres undefined),0.3,4%,0,-0.1,-1.1%,-6%
CCOc1ccc(C(=O)NCC(=O)N2CCN(C/C=C/c3ccccc3)CC2)cc1OCC,x,0%,0,-0.4,-3.3%,-22%
O=C(c1ccccc1)C(C(=O)N1CCc2ccccc2C1)n1ccccc1=O (centres undefined),-0.8,10%,1,-0.1,0.8%,0%
CCN(CC)c1ccc(S(=O)(=O)N2CCOCC2)cc1NC(=O)CSc1nncn1C,x,28%,-16,-0.2,0.3%,u
COc1ccc(CCN(C)C(=O)c2c(C)nn(-c3ccccc3)c2C)cc1OC,x,3%,9,0.2,-1.5%,9%[15.4 µM]
COC(=O)C1=C(C)N(Cc2ccccc2)C(=NCc2cc(OC)c(OC)c(OC)c2)N[C@H]1CCc1ccccc1,0.4,5%,-10,-0.6,-4.6%,15%
COc1ccc(NC(=O)CSCc2ccc(C)cc2)cc1,-0.2,-9%,-5,0.0,x,1%
Cc1cc(OCC(=O)Nc2cccnc2)c2c(C)cc(=O)oc2c1,x,-8%,24,-1.0,3.9%,u
O=C(N/N=C/C=C/c1ccc([N+](=O)[O-])cc1)c1cccs1,20,20%,5,-0.1,-1.6%,-26%
COc1cccc(C(=O)Nc2ccc3nc4n(c(=O)c3c2)CCCC4)c1,7.0,-1%,2,-0.4,0.2%,21%
CCOC(=O)Cc1[nH]nc2c1C(c1ccsc1)C(C#N)=C(N)O2 (centres undefined),0.7,-2%,16,0.4,x,11%
CC(SC(C)C(=O)NN=Cc1cccc(F)c1)C(=O)NN=Cc1cccc(F)c1 (centres undefined),x,4%,4,0.2,x,-18%
C/C(=N\NC(=O)NC1CCCCC1)c1ccco1,-2.5,5%,-11,0.7,-15%,-2%[15.4 µM]
CC(C)(C)C(=O)NC(=S)Nc1ccc(S(=O)(=O)Nc2nccs2)cc1,-0.4,-11%,9,-0.4,x,31%
Cc1ccc2c(c1)nnc1nnc(SCC(=O)O)n12,u,11%,2,0.4,x,-5%[15.4 µM]
Cc1occc1C(=O)Nc1cccc(/C=C/C(=O)O)c1,x,-6%,1,0.4,-1.2%,-30%[inhibitor]
CN(CC(=O)Nc1ccccc1Cl)C(=O)Cn1nnc(-c2ccc(F)cc2)n1,x,-16%,-3,-0.9,-1.3%,-7%
COc1ccc(NS(=O)(=O)c2ccc(NC(C)=O)cc2)c(OC)c1,0.2,-4%,-2,-0.2,x,-12%[15.4 µM]
O=C1NC(c2ccccc2)=NC1(NS(=O)(=O)c1ccc(Cl)cc1)C(F)(F)F (centres undefined),x,13%,-12,-0.2,0.6%,-1%
N#CCCCn1c(-c2ccccc2)noc1=O,1.1,6%,-3,1.1,0.2%,10%
CCCC(=O)n1nc(-c2ccc(C)cc2)nc1NCc1ccco1,0.3,u,-5,-0.9,-2.1%,4%[15.4 µM]
Cc1cc(C)cc(N(CC(=O)NC(C)C)C(=O)CCC(=O)Nc2ccccn2)c1,5.3,4%,-1,0.2,-3.5%,-18%

(cont.)
Structure,Menin MLL FP FL,gsp antag,TRPML1 blocker,TRPML1 agonist,ClpP mod,gsp agonist
CCOC(=O)N1CCN(S(=O)(=O)c2cc3c(cc2C)NC(=O)CO3)CC1,0.2,-3%,4,-0.8,0.9%,u
COc1cccc(C2c3[nH]c4ccccc4c3C[C@H]3C(=O)N(c4ccccc4C(=O)N4CCC(C(=O)O)CC4)C(=O)N23)c1 (some centres undefined),-4.9,1%,x,x,-1.6%,x
Cc1ccc(C(=O)N/C(N)=N/c2nc3ccccc3o2)cc1,3.7,6%,4,-0.3,-1.7%,-36%[inhibitor]
O=C1NN=C(c2ccc(Cl)cc2)CC1c1cccc(Br)c1 (centres undefined),-2.1,-9%,12,3.3,x,8%[15.4 µM]
CC(C)C[C@@H](CN1CCC[C@@H]1CN1C(=S)NC[C@@H]1Cc1ccc(O)cc1)N1C[C@H](Cc2ccc(O)cc2)N(CCc2ccccc2)C1=S,x,x,-5,1.9,-4.8%,x
COc1ccc(-c2cc(C(=O)NCc3ccc(F)cc3)c3c(-c4ccc(F)cc4)[nH]nc3n2)cc1OC,x,x,50,-0.1,4.2%,x
COc1ccc(NC(=O)CN(C)CC(=O)Nc2cccc(C(C)=O)c2)cc1,-18,2%,x,x,1.5%,17%
COc1ccc(C(=O)Nc2cccc(S(=O)(=O)NC3=NCCCCC3)c2)cc1,x,-5%,-5,-0.3,1.1%,13%
O=C(O)C1CCCCN1S(=O)(=O)c1cccc2nsnc12 (centres undefined),1.3,8%,-5,0.1,7.0%,-3%
